# Screening results from PubChem.
# HIV TAR-Tat: HIV-1 TAR-Tat binding disruption | HIV-1 TAR RNA, Tat peptide displacement FRET; stronger effect = higher value | z-score (no concentration beside the values) | hit rate 0.6% among 100,000;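 also: score is relative to mean and SD of negative controls; some compounds called inactive have numbers as strong as hits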
# CDC25B CDK2 inh: human CDC25B-CDK2/CyclinA binding inhibition | z-score (test concentration not listed) | HTRF CDC25B-CDK2/CyclinA binding, anti-His/anti-Flag; stronger effect = higher value | hit rate 0.72% among 94,000;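 also: score is relative to mean and SD of negative controls; strong numbers were not always called active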
# * marks the source's active call; other numbers are inactive results; x = no result given.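 The calls were made as follows: active = z-score from 3 up in half or more of its runs; inactive = the rest.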
SMILES,HIV TAR-Tat,CDC25B CDK2 inh
COc1ccc(OC)c(CN2CCN(Cc3ccc(C(F)(F)F)cc3)CC2)c1,x,0.24
CCOC(=O)c1c(C)[nH]c(C)c1S(=O)(=O)N1CCC(C(=O)N2CCCCC2)CC1,2.05,x
O=C(Nc1ccc(Br)cc1)N1CCC(CN2CCCC2)CC1,0.5,x
CSCCC(NS(=O)(=O)c1ccc2c(c1)oc(=O)n2C)C(=O)NC1CCCC(C)C1C (stereo not drawn),-0.29,-0.3
CCc1cc(C2CCCN2C(=O)Cn2nc(C(F)(F)F)c3c2CCCC3)on1 (stereo not drawn),0.98,x
O=c1c(NCc2ccc3c(c2)OCO3)nccn1-c1ccc(F)cc1,-1.34,x
NS(=O)(=O)c1ccc(NC(=O)CCC(=O)O)cc1,0.75,1.1
O=C(O)CSCCc1ccncc1,x,-1.16
Fc1cc(F)cc(-c2noc3ncnc(N(Cc4ccco4)CC4CCCO4)c23)c1 (stereo not drawn),0.89,x
CCOC(=O)C1(C(F)(F)F)N=C(N2CCCCC2)OC(N2CCCCC2)=N1,x,1.25

# Reformatted as labelled records: entries from further up.
canonical_smiles: CCc1cc(C2CCCN2C(=O)Cn2nc(C(F)(F)F)c3c2CCCC3)on1 (stereo not drawn)
  HIV TAR-Tat: 0.98
  CDC25B CDK2 inh: x

canonical_smiles: Fc1cc(F)cc(-c2noc3ncnc(N(Cc4ccco4)CC4CCCO4)c23)c1 (stereo not drawn)
  HIV TAR-Tat: 0.89
  CDC25B CDK2 inh: x

canonical_smiles: CCOC(=O)c1c(C)[nH]c(C)c1S(=O)(=O)N1CCC(C(=O)N2CCCCC2)CC1
  HIV TAR-Tat: 2.05
  CDC25B CDK2 inh: x

# Ordered by SMILES length (descending): three of the compounds above
SMILES,HIV TAR-Tat,CDC25B CDK2 inh
CCOC(=O)c1c(C)[nH]c(C)c1S(=O)(=O)N1CCC(C(=O)N2CCCCC2)CC1,2.05,x
Fc1cc(F)cc(-c2noc3ncnc(N(Cc4ccco4)CC4CCCO4)c23)c1 (stereo not drawn),0.89,x
O=C(Nc1ccc(Br)cc1)N1CCC(CN2CCCC2)CC1,0.5,x

# New compounds follow
SMILES,HIV TAR-Tat,CDC25B CDK2 inh
Cc1ccc(-c2c(N3CCc4ccccc43)c(=O)c2=O)cc1C,2.03,x
Cc1ccc(NS(=O)(=O)c2cc3c(cc2C)N(C)CCO3)c(Br)c1,2.31,x
COc1ccc(S(=O)(=O)[C@H]2CS(=O)(=O)C[C@@H]2NCc2ccc(C)cc2)cc1,1.2,-1.55
CCOC(=O)c1[nH]c2ccccc2c1CN(CC)CC,x,2.86
COc1ccc(OC)c(Nc2ncnc3c2cnn3-c2cccc(Cl)c2)c1,1.27,x
CCOc1cc(C2CC(=O)N3CN(c4ccc(CC)cc4)CSC3=C2C#N)ccc1O (stereo not drawn),23.7*,1.17
CCCN(CCC)CCCNc1ncnc2onc(-c3cc(F)cc(F)c3)c12,0.25,x
CCn1nc(C)c(CCNC(=O)Nc2ccccc2)c1C,-0.61,x
COc1cccc(CC2C(=O)Nc3ccc(Br)cc32)c1OC (stereo not drawn),1.35,-2.67
CNC(=O)n1nccc1-c1ccc(-c2cccs2)s1,x,-0.56
CCOCCCNC(=O)C1=C(C)C(=O)OC12CCN(CC)CC2,0.81,x
Cc1ccc(C)c(N2CCN(c3nc4ccccc4n4nnnc34)CC2)c1,-5.47,-0.85
CCOC(=O)c1cnc2ccc(OCC)cc2c1NCC(C)O (stereo not drawn),1.82,2.66
COc1ccc(OC)c(Nc2nc(-c3c(C)nc4ccccn34)cs2)c1,0.66,-2.38
Nc1nc2[nH]c(=O)cnc2c(=O)[nH]1,1.87,-0.72
COc1cc2nc3c4ccccc4n(C(C)C)c3nc2cc1OC,-1.02,-0.69
CSc1nnc(-c2ccccc2N=Cc2c(C)[nH]n(-c3ccccc3)c2=O)c(=O)[nH]1,x,-0.28
Cc1ccc(CNC(=O)CCS(=O)(=O)c2ccc3c(c2)oc(=O)n3C)o1,-1.34,x
Cc1cc(CNC(=O)Nc2ccc3c(c2)OCO3)c(C)n1-c1cccc(Cl)c1,1.41,x
COc1ccc(-c2nc3c(c(=O)[nH]2)Cc2cc(F)ccc2O3)cc1,0.1,-1.17
Cc1ccccc1N1C(=O)c2ccccc2C1Nc1ccc(Br)cn1 (stereo not drawn),0.01,3.11
CCCNS(=O)(=O)C1CCS(=O)(=O)C1 (stereo not drawn),-0.03,-1.31
CCOC(=O)c1sc(Sc2ccc(C(F)(F)F)cc2[N+](=O)[O-])nc1C,x,-1.05
CC(=O)N1CCc2c(sc3nc(SCC(N)=O)n(-c4ccc(F)c(Cl)c4)c(=O)c23)C1,1.13,0.26
Cc1c(/C=C(\C#N)S(=O)(=O)C(C)(C)C)sc2ccccc12,x,-2.91
O=S(=O)(c1ccccc1)c1nc(C(c2ccccc2)c2ccccc2)oc1N1CCOCC1,-0.29,-3.23
CCc1nnc(-c2c[nH]c3ccccc23)o1,1.38,1.17
O=c1oc(-c2ccccc2NS(=O)(=O)c2ccc3ccccc3c2)nc2ccccc12,2.07,-0.36
C=CCNS(=O)(=O)c1ccc(OC)c(OC)c1,0.21,0.32
CC1SCC(NC(=O)c2ccccc2Cl)CS1 (stereo not drawn),x,-1.37
O=C(Nc1ccc(O)c(-c2nc3ccccc3o2)c1)c1ccc([N+](=O)[O-])o1,1.05,-0.32
CCOC(=O)C1CCN(S(=O)(=O)c2c(C)nc3scc(C)n3c2=O)CC1,-0.58,-1.24
C=CCSc1nc2c(c(=O)n1CC)C1(CCCC1)Cc1ccccc1-2,0.94,0.4
CCOc1ccc(-c2cccc(NS(=O)(=O)c3cc(C)cc(C)c3)c2)nn1,0.6,x
O=C1CCc2cc(S(=O)(=O)NCc3ccc(Cl)cc3)cc3c2N1CC3,0.68,x
Cc1[nH]c2ccccc2c1C(=O)CSc1nnc(-c2ccco2)n1-c1ccccc1,-1.73,2.6
O=C(Cn1c(=O)oc2cc(S(=O)(=O)N3CCCC3)ccc21)NCCC1=CCCCC1,-0.76,-0.55
COC(=O)C1=NOC2(CC(=O)N(c3ccc(Br)cc3)C2=O)C1 (stereo not drawn),-2.95,-1.93
O=C(CCc1ccccc1)Nc1nnc(SCc2cc(=O)n3nc(C4CC4)sc3n2)s1,1.64,x
CN(Cc1cnn(-c2ccccc2)c1)C(=O)C1CCC(=O)N1S(=O)(=O)c1ccccc1 (stereo not drawn),1.88,x
COc1ccc(NC(=O)/C(C#N)=C/N(C)C)c(OC)c1,x,-2.26
O=c1c(NCc2ccccc2Cl)c(-c2ccc(Cl)cc2)c1=O,0.51,x
COc1ccc(-c2noc(-c3cccn4c(=O)c5ccccc5nc34)n2)cc1OC,-0.54,-0.3
CCn1c2ccccc2c2cc(CN3CCC(N4CCN(C)CC4)CC3)ccc21,x,-0.22
CN1CCN(CC(O)c2ccccc2)CC1 (stereo not drawn),-0.95,-0.89
Cc1cc2ncc(C3=NNC(O)(C(F)(F)F)C3)c(C)n2n1 (stereo not drawn),x,-0.78
O=C(Nc1ccccc1SCc1cc(=O)n2nc(C3CC3)sc2n1)C1CCCCC1,0.47,x
CCSc1nnc(NC(=O)C2C3C=CC(C3)C2C(=O)O)s1 (stereo not drawn),x,-0.64
CSC1=N/C(=C/c2ccco2)C(=O)N1,x,-1.66
CCN(CC)S(=O)(=O)c1ccc2c(c1)N(CC(=O)NC1CCCC1)CCS2,-0.05,x

# Next entries.
SMILES,HIV TAR-Tat,CDC25B CDK2 inh
CC1CC(=O)Nc2ccccc2N1C(=O)CN1CCN(c2ccccn2)CC1 (stereo not drawn),x,-1.62
Cc1ccc(C)c(Nc2nc(-c3cccnc3)cs2)c1,0.82,1.14
O=C(NCc1ccc(Cl)cc1)c1cnc2sc3c(n2c1=O)CCCC3,1.49,x
CCOC(=O)C1CCN(C(=O)Cn2ncn3nc(-c4cccs4)cc3c2=O)CC1,-1.81,0.17
O=C(O)c1c(-c2ccccc2)c(-c2ccccc2)n[nH]c1=O,-0.49,-1.48
O=C1CCSc2ccc(S(=O)(=O)N3CCN(c4ccc(F)cc4)CC3)cc2N1,-0.16,x
Cc1ccc(-n2ncc3c(NCC4CCCO4)ncnc32)cc1Cl (stereo not drawn),0.6,x
O=C(NCC1CCN(C2CCCC2)C1)Nc1ccccc1Cl (stereo not drawn),0.98,-1.15
CCC(C(=O)NCCOC)n1ncn2c(cc3occc32)c1=O (stereo not drawn),2.27,-0.77
CC1CCC2C(=O)N(c3ccc(O)cc3)C(=O)C2C1 (stereo not drawn),0.48,-2.09
Cn1c(=O)c(=O)n(C)c2cc(N3CCCC3)c(NS(=O)(=O)c3ccc(Br)cc3)cc21,0.03,x
CCCCCC(=O)O/N=C(\C)c1cc[nH]c1,x,-0.99
CCCCc1nn2c(=O)cc(CN(CC)c3ccccc3)nc2s1,-0.39,x
Cc1cc(CNC(=O)NC(C)C)c(C)n1-c1ccc(F)cc1,-4.85,x
CC1CCC(NC(=O)Cn2c(=O)oc3cc(S(=O)(=O)N4CC(C)CC(C)C4)ccc32)CC1 (stereo not drawn),0.52,-0.61
CCCCOc1ccc(C2CC(=O)Nc3c2c(=O)nc(SC)n3C)cc1 (stereo not drawn),-0.05,-0.96
Cc1ccc2c(c1)-c1cc(C)nn1C(c1ccccc1F)N2 (stereo not drawn),1.09,0.91
C=CCn1c(=O)n(Cc2ccccc2)c(=O)c2cc3c(nc21)CC(C)(C)OC3,4.62,0.23
O=C(c1cnn(-c2ccc(Cl)cc2)c1C(F)(F)F)N1CCN(c2ncnc3ccsc23)CC1,x,-2.09
COC(=O)c1cc(S(=O)(=O)N2CCN(Cc3ccc4c(c3)OCO4)CC2)c[nH]1,-0.37,x
CCCS(=O)(=O)N1CCCc2ccc(NS(=O)(=O)Cc3ccccc3F)cc21,1.17,x
CN1C(=O)C(CC(=O)N2CCCC2)Sc2ccc(S(=O)(=O)N(C)C)cc21 (stereo not drawn),1.91,x
CC(=O)N1N=C(c2ccncc2)OC1c1cc(-c2ccccc2)nc2ccccc12 (stereo not drawn),0.63,x
O=C(NC1CCCc2ccccc21)c1ccc(CNc2c(N3CCCC3)c(=O)c2=O)cc1 (stereo not drawn),2.25,-0.97
CCc1nnc(SCC(=O)Nc2cc(OC)cc(OC)c2)c2cc3occc3n12,-1.31,x
CC1=CC(=O)C(CCOCCC2=CC(=O)C(C)=CC2=O)=CC1=O,x,-2.4
CC(C)(C)NC(=O)CSc1nnc(-c2ccncc2)o1,1.49,-1.16
CC1CCN(C(=O)CCS(=O)(=O)c2cc3c(cc2Cl)NC(=O)CO3)CC1,2.68,x
COc1ccc(OC)c(NC(=O)c2[nH]nc3c2CSc2ccccc2-3)c1,2.07,x
CCCCCOC(=O)C1=C(C)NC2=C(C(=O)CC(C)(C)C2)C1c1ccc(OCC)c(OC)c1 (stereo not drawn),0.33,-1.21
CCn1c(N)c(C(=O)N2CCCCC2)sc1=S,x,-0.38
COc1ccccc1/C=C/c1nn2c(-c3ccccc3Cl)nnc2s1,0.69,-0.49
CCS(=O)(=O)NCCc1sc2nc(-c3ccc(OC)cc3)nn2c1C,0.49,x
COCCn1c(Cc2cccn2C)nnc1SCC(=O)NC1CCCCC1,-1.19,-1.65
Cc1cc(NC(=O)CSc2ccc(-c3sc(-c4ccccc4)nc3C)nn2)no1,2.43,x
O=C(Nc1ccccc1)c1cccc(-n2cnnc2)n1,1.63,x
Cc1ccc(-c2nc3ccccc3s2)cc1NC(=O)c1cccc2ccccc12,x,-4.31
O=C(CC1C(=O)N(c2ccccc2)C(=O)N1CCc1cccs1)Nc1ccccc1 (stereo not drawn),x,-0.2
CCN1CCN(c2ncnc3c2cnn3-c2ccc(C)c(Cl)c2)CC1,0.19,x
c1ccc(-n2nnnc2COc2ccc3ccccc3c2)cc1,2.86,-2.43
COc1ccc(CN2CN=C(Nc3nc(C)c4ccc(C)cc4n3)NC2)cc1,1.26,1.02
CCCCCCN1C(=O)C(=O)c2ccccc21,1.35,-1.73
O=C1CN(S(=O)(=O)c2ccc(-c3ccc(=O)[nH]n3)s2)c2ccccc2N1,2.09,x
Cc1cccc(N(C(=O)Nc2ccccc2)C2=NCC(C)S2)c1 (stereo not drawn),x,-1.28
Cc1cc(-c2ccc(S(=O)(=O)N3CCC(N4CCCCC4)CC3)s2)on1,0.52,x
O=C(CSc1nncn2c1cc1occc12)Nc1ccc(Br)cc1F,1.13,x
CCOC(=O)c1sc2cccc(F)c2c1S(=O)(=O)Nc1ccc2c(c1)OCO2,0.75,x
CCCN1CCN(c2ncc3c(n2)CCN(Cc2cccc(Br)c2)C3)CC1,0.8,x
O=S(=O)(Nc1ccc(O)c(Sc2nc3ccccc3s2)c1)c1cccs1,x,-2.65
Cc1nc2ccc(S(=O)(=O)NCC(=O)NC3CCCCC3)cc2s1,-0.1,1.45

# (list continues)
SMILES,HIV TAR-Tat,CDC25B CDK2 inh
CCC(O)c1nc2ccccc2n1CCOc1ccc(Cl)cc1 (stereo not drawn),-0.3,0.23
Cc1ccc(S(=O)(=O)NCCc2sc(-c3ccc(Cl)cc3)nc2C)s1,1.16,x
Cc1nnc2c3ccccc3nc(Nc3cccc(C(=O)O)c3)n12,0.25,x
COC(=O)C(C)OC(=O)c1ccc(Oc2nc(N(C)C)nc(N(C)C)n2)cc1 (stereo not drawn),0.2,-0.48
O=c1oc2ccccc2c2c1ncn2C1CCCC1,0.83,-1.71
Cn1c(=O)c2c(nc(NCCCn3ccnc3)n2Cc2ccc(F)cc2)n(C)c1=O,0.94,0.04
O=c1c(O)c(-c2ccc(O)cc2O)oc2cc(O)cc(O)c12,24.9*,-1.93
